# Mtb hypoxia inh: inhibitors of hypoxia-regulated fluorescent reporter in Mycobacterium tuberculosis; M. tuberculosis hypoxia-regulated fluorescent reporter, fluorescence; fluorescence inhibition, % (no concentration beside the values); 300,000 compounds, 0.1% hits; AID 1159583;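 active = 35 to 45% if threefold the growth effect, above 45% if 1.5-fold the growth effect; inactive = the rest, general growth blockers included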;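 note: wells of about 50 µL received 100 nL stock; 0% = vehicle wells and 100% = reference inhibitor wells; whole bacteria with a GFP reporter of the hypoxia response; strong numbers were not always called active; many hits fall short of the cut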
# ugtP null kill: compounds lethal to S. aureus RN4220 ugtP deletion mutant | OD600 growth, 16 h; some inactives read as strong as hits | growth inhibition, % (test concentration not listed) | 330,000 compounds, 0.54% hits;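 active = z-score under -3 and OD600 up to 0.15 on both plates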;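 note: plate controls were untreated wells for no effect and antibiotic for full effect; wells of about 80 µL received 100 nL stock; the first replicate is given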
# Autofluor counter: compound fluorescence in toxin protease inhibitor counterscreen; fluorescence intensity (concentration not given with the values); compound autofluorescence counterscreen, microsphere flow cytometry; hits give high values; 360,000 compounds, 3.1% hits;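 active = at least 3 SD above the mean of all compounds, about 16000 in these data; inconclusive = too few beads counted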;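 note: 100 nL of 1 mM stock went into each well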
# PrP UTR inh: suppresses PrP 5' UTR mRNA reporter expression. 340,000 compounds, 0.35% hits. cell-based PrP 5' UTR mRNA reporter, plate reader. AID 488862. inhibition, % (no concentration beside the values);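 active = every replicate at 50% or more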;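 note: 0 = median of the neutral control wells; tested in H4 reporter cells; numbers are from one replicate; inactives centre near -14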
# BJeLR viability: kills HRASV12-expressing BJeLR cells. BJeLR (HRASV12) viability, CellTiter-Glo ATP luminescence, 48 h; reference of the scale not given here. inhibition, % (test concentration not listed). 300,000 compounds, 0.17% hits. AID 1554;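 active = replicate mean above 50%; inconclusive = above 50% but judged a plate artefact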;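 note: 50 nL library stock added to about 25 µL; numbers are from one replicate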
# Sa RN4220 lethal: S. aureus RN4220 growth inhibition. inhibition, % (no concentration beside the values). AID 1259311. 330,000 compounds, 0.33% hits. OD600, 16 h;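 active = z-score of -3 or lower and OD600 up to 0.18 on both plates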;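 note: plate controls were untreated cells for no effect and reference antibiotic for full effect; stock transfer was 100 nL into about 80 µL; one replicate is shown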
# Mtb hypoxia inh growth: also measured in Mtb hypoxia inh; calls as there; growth inhibition, %; measured here: M. tuberculosis growth (absorbance);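 0% = vehicle and 100% = reference antibiotic; read after six days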
# * hit, by the source's call; ? = inconclusive; . = no result given. Outcome played no part in choosing rows; 4% or so of the library scored in one or more.
SMILES,Mtb hypoxia inh,Mtb hypoxia inh growth,ugtP null kill,Autofluor counter,PrP UTR inh,BJeLR viability,Sa RN4220 lethal
Cc1ccc(Cl)c(OCC(=O)N(C)CC(=O)Nc2ccc(N3CCOCC3)cc2)c1,7,1,4,.,-17,3,1.9
COCCN=c1scc(-c2cccs2)n1/N=C/c1ccc(O)c(O)c1O,.,.,.,1949,-9,-8,.
COc1cc(OC)c(NC(=S)Nc2cc(Cl)cc(Cl)c2)cc1Cl,-1,7,93*,2685,7,0,99*
c1ccc(NN=C2CCCc3ccccc32)nc1,7,9,5,.,.,.,3.5
O=C(O)c1ccc(NCc2nc3ccccc3n2CCOc2ccccc2Cl)cc1,3,5,20,2519,-8,-2,0.1
CC(C)(C)CN1CCNC(=O)C1CC(=O)N1CCN(c2ccccc2)CC1 (stereo not drawn),-1,-5,2,4315,-8,-2,1.5
C=CCn1c(SCC(=O)NC2CCCC2)nnc1-c1ccccn1,0,0,14,4120,-17,2,6.5
COc1cc(C(=O)N2CCC(NC(=O)C(Cc3ccc(C(C)C)cc3)NC(C)=O)CC2)cc(OC)c1OC (stereo not drawn),-6,8,-1,4399,-22,6,5.1
Cc1ccc(S(=O)(=O)CC(=O)c2ccc(C)c([N+](=O)[O-])c2)cc1,2,0,-2,2443,-19,-3,-9.7
COc1ccc(C2Nc3ccccc3C(=O)N2NS(=O)(=O)c2ccccc2)c(OC)c1 (stereo not drawn),3,-2,10,4402,8,8,6.2
COc1ccc(S(=O)(=O)NCc2ccco2)cc1C(=O)N1CCCCC1,11,6,3,3407,-28,-21,3.7
COc1ccccc1CNC(=O)C1CCC(=O)N(CCCN2CCCC2=O)C1 (stereo not drawn),5,4,1,5156,-11,8,2.4
Cc1ccc(S(=O)(=O)N2CCOCC2)cc1NC(=O)COC(=O)Cc1ccccc1,0,8,5,3543,-5,.,1.3
CC(=O)c1cccc(NS(=O)(=O)c2ccc(C(=O)Nc3ccccc3)cc2)c1,-17,-12,0,4050,-2,14,1.2
Cc1cc(C)c2cc(CN(Cc3cccnc3)C(=O)c3ccc(F)cc3)c(Cl)nc2c1,-2,-8,3,6801,-4,-5,0.2
Cc1nn(CC(=O)Nc2ccc(N(C)C)cc2)c(C)c1[N+](=O)[O-],3,2,14,2013,-19,-6,-3.2
N#CC(c1ccc(Cl)cc1)c1cccc(Cl)n1 (stereo not drawn),6,11,-2,4477,-20,5,5.8
CC(=O)NC12CC3CC(C1)CC(C(=O)OCC(=O)Nc1ncc(Cl)cc1Cl)(C3)C2,6,-2,0,4091,-1,-10,3.2
CCOC(=O)C(=NNc1cc(Cl)ccc1Cl)N1CCN(CC)CC1,12,1,2,.,.,.,-1.3
CC(c1ccccc1)N(C)C(=O)CSc1nnc(C2CC2)n1C1CC1 (stereo not drawn),11,1,0,3710,-1,.,3.4
COc1cc(OC)cc(C(=O)Nc2ccc(CN3CCCCC3)cc2)c1,13,5,3,4390,8,5,10
COc1ccc(NS(=O)(=O)c2cc(C(=O)OC(C)C(=O)N3CCOCC3)ccc2Cl)cc1 (stereo not drawn),-6,-1,4,.,-8,-2,-1.4
CCOCCCNC(=S)N1CCCN(c2nc3cc(C)ccc3cc2C#N)CC1,9,2,8,4390,-17,-3,5.8
CCC(=O)c1ccccc1OCCCN1CCC(Cc2ccccc2)CC1,-8,26,-9,3374,-31,21,-1.5
CCN1C(=O)[C@H]2[C@H]3CN=C(SCC(=O)c4ccccc4)N3[C@@](C)(C(=O)OC)[C@H]2C1=O,-2,2,10,2919,-47,.,5.0
O=C(O)c1c(Cl)c(Cl)c(Cl)c(Cl)c1C(=O)N1CCCC1,6,4,0,8073,-9,0,1.5
COc1ccc(C2=NOC(C(=O)NCc3ccc(F)cc3)C2)cc1 (stereo not drawn),13,11,3,10404,.,1,4.4
O=C(c1ccccc1)C(O)(Cc1ccccc1)c1ccccc1 (stereo not drawn),-10,2,-1,?,-15,-9,5.9
C#Cc1cccc(C(=O)NC2CCCN(C3Cc4ccccc4C3)C2)c1 (stereo not drawn),15,4,13,4754,-6,14,3.0
COc1ccc(NC(=O)Nc2ccc(Br)c(C)c2)cc1,2,8,6,5245,-27,.,5.6
O=C(N/N=C/c1cccnc1)c1ccco1,.,.,.,3785,-38,-7,.
CCOC(=O)C1CCN(S(=O)(=O)c2c(C)n(C)c(=O)n(C)c2=O)CC1,7,1,5,4281,-11,2,3.1
NC(=O)c1nsc(C(=O)N(Cc2ccco2)C(C(=O)NCc2ccccc2)c2ccc(O)cc2)c1N (stereo not drawn),6,5,-2,5748,-3,0,2.6
CCOC(=O)c1c(C)[nH]c(N=Nc2cccc(OC)c2)c1C,6,14,0,3873,-148,-3,44
COc1cc(OC)cc(C(=O)N(Cc2ccco2)c2c(N)n(Cc3ccccc3)c(=O)[nH]c2=O)c1,9,7,5,3494,-7,.,5.5
COc1cccc(C=NNC(=O)C(=O)NCc2cccnc2)c1,14,2,4,.,.,.,2.5
CCc1ccc(NC(=O)CCC(=O)c2ccccc2)cc1,-9,6,5,3606,-7,1,1.9
COc1ccc(NC(=O)c2ccc3snnc3c2)cc1,.,.,8,5719,-52,8,-2.4
Cc1ccc(Cn2c(S(=O)(=O)O)nc3ccccc32)cc1,6,1,-4,2477,-16,0,3.8
Cc1ccc(OCC(=O)Nc2c3c(nn2C(C)(C)C)CS(=O)(=O)C3)cc1,4,1,1,6209,-13,7,1.3
Cc1c(N(C(=O)c2ccccn2)C2(C(=O)NC3CCCC3)CCCCC2)c(=O)n(-c2ccccc2)n1C,8,7,1,3912,-25,-5,-0.3
CC(OC(=O)CC1CC2CCC1C2)C(=O)Nc1cccc(S(=O)(=O)N2CCOCC2)c1 (stereo not drawn),-7,-8,-6,?,-12,5,2.9
Cc1ccc(N2CC(C(=O)Nc3ccc(S(=O)(=O)Nc4ncccn4)cc3)CC2=O)cc1C (stereo not drawn),.,.,4,3779,-24,6,2.2
CN(C)CCN(Cc1ccc(Cl)cc1)c1ccccn1,.,.,.,4637,2,-2,.
CC(=NNC(=O)c1ccccc1C)c1cccnc1,4,8,-1,.,.,.,3.2
O=C(CSc1cccc2cccnc12)N1CCCC1,.,.,8,2800,-7,-6,4.5
O=C(c1ccccc1)N1N=C(c2ccccc2)CC1c1cccs1 (stereo not drawn),1,0,-19,3621,-8,5,7.6
CC(=O)N1CC(C)Sc2ccc(S(=O)(=O)NC3CCCCC3C)cc21 (stereo not drawn),13,5,4,6098,-15,2,5.3
Cn1ccnc1SCC(=O)Nc1cc(F)ccc1F,-1,7,0,5206,-10,-8,0.2
Cc1cccc(NC(=O)CN2C(=O)COc3ccc(Cl)cc32)c1,7,7,-2,7994,-18,-14,6.7
COCCN(C(=O)CSc1nnc2cc(C)c3ccccc3n12)c1c(N)n(Cc2ccccc2)c(=O)[nH]c1=O,4,0,8,2290,-18,-4,1.0
CSc1cccc(NC(C)C(=O)NCc2ccccc2)c1 (stereo not drawn),12,16,11,4180,-18,0,6.4
S=C(c1ccc(-c2ccccc2)cc1)N1CCOCC1,14,2,3,3872,-7,-2,9.5
Cc1ccc(S(=O)(=O)N2CCC(C(=O)NN3CCCCC3)CC2)cc1,5,1,15,6439,-14,.,6.8
Cn1cccc1Cc1nnc(SCC(=O)NCc2ccccc2Cl)n1-c1ccc(F)cc1,.,.,5,4738,-9,3,-4.6
COc1c(Cl)cc(-c2noc(C)c2C(=O)NCCc2ccc(C)cc2)cc1Cl,.,.,1,5641,-27,2,7.1
CCOc1ccc2c(c1)c1nnc(SCC3CCCO3)nc1n2C (stereo not drawn),10,9,3,4051,-27,-10,2.8
Cc1ccccc1NS(=O)(=O)c1cc2c(cc1C)NC(=O)CO2,6,8,-6,6395,-21,5,-3.1
COc1ccc(/C(O)=C2/C(=O)C(=O)N(c3ccccn3)C2c2ccc(OC)cc2)cc1 (stereo not drawn),-4,-6,7,2962,-11,19,0.5
COCCNC(=S)N(CCO)Cc1cc2cc3c(cc2[nH]c1=O)OCO3,10,0,17,4036,-26,1,4.9
# Remaining list, next part
SMILES,Mtb hypoxia inh,Mtb hypoxia inh growth,ugtP null kill,Autofluor counter,PrP UTR inh,BJeLR viability,Sa RN4220 lethal
Cc1cc(C)cc(N(CC(=O)NCc2ccco2)C(=O)c2snc(C(N)=O)c2N)c1,9,-11,6,4205,-5,0,5.8
C/C(CCc1ccccc1)=N\NC(=O)c1ccc(CN2CCOCC2)cc1,.,.,.,2207,-68,9,.
Cc1ccc2nc(Cc3ccc(N)cc3)oc2c1,.,.,13,3445,-43,-1,6.4
O=C(Cc1cccs1)Nc1cccc(C(=O)Nc2ccc(C(=O)O)cc2)c1,.,.,.,4753,-18,-5,.
CCCCn1cnc2c(SCc3ccc(Cl)cc3)nc(N)nc21,22,20,1,4084,-9,.,2.3
CCOc1ccc(-c2cc(NC(=O)Cn3ncc4c3-c3ccccc3OC4)on2)cc1OCC,3,7,-7,6641,-46,-2,7.7
Cc1ccc(C)c(C(=O)CSc2nnnn2-c2cccnc2)c1,.,.,-5,4475,-26,4,0.5
O=C(Nc1nnc(Cc2ccc([N+](=O)[O-])cc2)s1)Nc1ccccc1F,-6,2,-1,2430,-21,-9,2.5
Cc1cccc(NC(=S)NC(=O)c2ccco2)c1C,5,7,8,6317,-46,-12,0.5
Cc1ccc(S(=O)(=O)N2[C@@H](c3ccc(C(C)(C)C)cc3)C(C(=O)O)=CC[C@H]2c2ccc3c(c2)OCO3)cc1,-2,-1,-1,4154,-6,.,5.8
COc1ccc(CCNC(=O)c2cccc3c2C(=O)N(C2CCCCC2)C3)cc1OC,-1,1,-3,6006,-15,0,4.2
CC(=O)Nc1ccc(NC(=O)CSc2nnc3ccc(-c4ccc(F)cc4)nn23)cc1,17,14,0,5573,-18,-3,0.8
CCOC(=O)N1CCN(Cc2nc3cc([N+](=O)[O-])ccc3n2C)CC1,-3,2,8,3296,-33,-8,3.1
COC(=O)c1ccc(CN2C(=O)NC(CC(C)C)C2=O)cc1 (stereo not drawn),7,1,2,4753,81*,-4,1.4
COc1ccc(-c2ccc(N(C)C)cc2)cc1C1C2C=CCC[C@@]2(C)C(=O)N1Cc1ccccc1 (stereo partly drawn),-1,2,4,.,.,.,-7.5
COC(=O)c1[nH]c2ccccc2c1NC(=O)CN1CCCCCC1,.,.,2,5569,-11,-5,3.0
Cn1c(N=NC(=O)c2ccccc2)c(O)c2ccccc21,8,3,6,8086,-37,5,13
Oc1ccc2ccccc2c1C=Nc1ccccc1-c1nc2ccccc2[nH]1,.,.,10,2720,-42,3,4.5
CC(=O)N/C(=C\c1cccs1)C(=O)O,3,6,7,4586,-2,-3,8.5
CN(C)c1nc2ccccc2c(N)c1-c1ccccc1,9,7,6,9802,-34,.,4.5
Cc1ccc(S(=O)(=O)N2CCN(CCOc3cccc(C)c3)CC2)cc1,8,1,13,3951,.,.,6.8
CN(C)c1ccc(/C=C2/NC(=O)NC2=O)cc1,14,11,-2,2610,-29,-3,1.5
O=C(COc1cc2oc(=O)c3c(c2cc1Cl)CCC3)NCCCN1CCOCC1,-1,5,3,5265,-26,7,2.0
Cc1cc(-c2ccc(S(=O)(=O)N3CCN(c4cccc(C(F)(F)F)c4)CC3)s2)on1,10,4,9,4969,-18,4,9.9
Cc1cc(=O)[nH]c(SCC(=O)c2ccc3c(c2)NC(=O)CO3)n1,-9,-10,20,.,2,7,5.5

# Whole records from above.
# Oc1ccc2ccccc2c1C=Nc1ccccc1-c1nc2ccccc2[nH]1 is listed as Mtb hypoxia inh: .; Mtb hypoxia inh growth: .; ugtP null kill: 10; Autofluor counter: 2720; PrP UTR inh: -42; BJeLR viability: 3; Sa RN4220 lethal: 4.5
# CCOC(=O)N1CCN(Cc2nc3cc([N+](=O)[O-])ccc3n2C)CC1 is listed as Mtb hypoxia inh: -3; Mtb hypoxia inh growth: 2; ugtP null kill: 8; Autofluor counter: 3296; PrP UTR inh: -33; BJeLR viability: -8; Sa RN4220 lethal: 3.1
# Cc1cc(=O)[nH]c(SCC(=O)c2ccc3c(c2)NC(=O)CO3)n1 is listed as Mtb hypoxia inh: -9; Mtb hypoxia inh growth: -10; ugtP null kill: 20; Autofluor counter: .; PrP UTR inh: 2; BJeLR viability: 7; Sa RN4220 lethal: 5.5
